AID504770: growth inhibitors of E. coli YBA685 in a screen for V. cholerae RctB (chromosome II replication) inhibitors; z-score (no concentration beside the values); E. coli YBA685 rctB-dependent plasmid, OD600 growth, 3 h; active compounds read low; 130,000 compounds, 0.27% hits;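 active = z-score under -2 on both plates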;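 also: wells of about 30 µL received 100 nL stock; score is relative to mean and SD of the test wells; the first replicate is given; strong numbers were not always called active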
CapD inh: CapD enzyme inhibition. purified CapD enzyme, fluorescence intensity read-out; active compounds read low; some hits fall short of the stated cut. z-score (test concentration not listed). 140,000 compounds, 0.23% hits. AID 492967;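 active = z-score under -4 in either of two replicates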;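 also: stock transfer was 100 nL into about 40 µL; score is relative to mean and spread of the plate; one replicate is shown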
* marks the source's active call; other numbers are inactive results; . = not tested or not shown; & = joins results of further samples.

Compound,AID504770,CapD inh
CCOC(=O)/C(SC#N)=C(/N)N1CCN(c2ccc(OC)cc2)CC1,.,-0.38
O=C(Cn1nc(C(F)(F)F)c2c1CCCC2)N1CCCc2ccccc21,-0.7,0.8
CCOC(=O)c1cnc2cc(-c3ccc(Cl)cc3)nn2c1C,.,3.9
CCCNS(=O)(=O)c1ccc(-n2cnnn2)c(OC)c1,1.2,.
CC(C)(C)c1cc2nc(C(F)(F)F)cc(N3CCN(S(=O)(=O)c4cc(Br)c(Cl)s4)CC3)n2n1,.,6.3
OCCSc1n[nH]c(-c2ccccc2)n1,0.15,0.54
Cc1cccc(C(=O)c2ccccc2C(=O)O)c1O,-0.05,-0.44
Nc1ccc(Cl)cc1C(=O)c1ccccc1,0.1,-1
COC(=O)Cc1c(C(=O)OC)sc(NC(=O)c2ccccc2)c1C(=O)OC,.,2.8
CCc1ccc(S(=O)(=O)N2CCCC2C(=O)OC)cc1 (stereo not given),-0.5,0.13
C/C(=N\NC(=O)CSc1nnc(-c2ccccc2)n1-c1ccccc1)c1cccs1,-0.6,-0.12
COCCNc1nc(SCc2cc(=O)n3ccccc3n2)nc2ccccc12,.,1.4
O=S(=O)(Cc1ccc(Cl)cc1)CC(O)COc1ccccc1Cl (stereo not given),.,-0.23
CC(=O)Nc1ccc(S(=O)(=O)N2CCc3ccccc32)cc1,-0.25,0.35
O=C(Nc1cccc(-c2cn3cccnc3n2)c1)C1CCCC1,-0.65,-0.21
CC(=O)Nc1ccc(NCC(O)Cn2ccc3ccccc32)cc1 (stereo not given),1.6,.
CC(=O)C1=NN(c2ccccc2)C2(S1)c1ccccc1C(c1cc(C)ccc1C)=NN2c1ccccc1 (stereo not given),.,-0.005
Clc1ccc(-c2cnc(SCc3ccc(Cl)cc3Cl)nc2)cc1,.,0.005
CC1(C)CC(CCC(=O)Nc2ccc(S(N)(=O)=O)cc2)C(=O)O1 (stereo not given),-0.6,-0.46
CC(=O)Nc1ccc(NC(=O)c2ccc(C(F)(F)F)nc2C)cn1,-0.35,-0.57
COc1cc(C(=O)OCC(=O)/C=C2/N(C)c3ccccc3C2(C)C)ccc1OCC(=O)N1CCOCC1,0.7,.
CCCCN1CC2CC=C(Cl)CC2C1 (stereo not given),-0.6,-0.06
COC(=O)c1ccccc1NC(=O)Cn1c(CCC(=O)O)ccc1-c1ccccc1,-0.75,0.09
c1ccc2[nH]c(C3CCN(CCN4CCOCC4)CC3)nc2c1,-0.95,.
Cc1ccc(-n2nc3c(c2NC(=O)c2ccc(S(=O)(=O)N4CCCCC4)cc2)CS(=O)(=O)C3)c(C)c1,.,-0.35
O=c1ncn(Cc2ccccn2)cc1-c1ccccc1,-0.7,-0.65
O=C1CSC(=Nc2ccc(O)cc2)N1,-0.45&-0.25,0.045
O=c1c2ccccc2nnn1CSc1ccc(Cl)cc1,-0.8,-0.99
O=C(NCc1ccc(Cl)cc1)c1cnn2ccccc12,0.85,8.1
Cn1c(CNC2CCCCC2)nc2ccccc21,-1.8,0.04
Cc1occc1-c1nnc2sc(Cc3cccc4ccccc34)nn12,-1.1,.
Cc1occc1-c1nnc2sc(-c3cccs3)nn12,1.4,.
CC(C)OCCCNC(=O)c1ccc2c(=O)n(Cc3ccco3)c(SCC(=O)c3ccc(F)cc3)nc2c1,.,-0.74
CSc1nc(Oc2cc(Cl)c(Cl)cc2Cl)cc(C(F)(F)F)n1,.,-0.48
Cc1nc2nc(N3C(=O)c4ccccc4C3=O)[nH]n2c(=O)c1Cl,1,-0.03
Brc1cnn(Cc2ccccc2)c1,-0.5,0.045
CCC(=N\Nc1nc(C)cc(=O)[nH]1)/C(CC)=N/Nc1nc(C)cc(=O)[nH]1,0.25,.
O=C(c1ccccc1)N1CCCCC(Sc2ccccc2)C1=O (stereo not given),0.55,0.16
O=C1c2cccc3c(Sc4ccccc4)ccc(c23)C(=O)N1CCc1ccccn1,.,0.8
Cc1ccc(S(=O)(=O)N(C)C2CCS(=O)(=O)C2)cc1C (stereo not given),2.2,.
CCOc1ccc(S(=O)(=O)n2nnc3ccccc32)c2ccccc12,.,0.69
O=C(C1CCN(C(=O)N2CCOc3ccccc32)CC1)N1CCOCC1,-0.75,-0.84
N#CC(=C1SCCS1)S(=O)(=O)Cc1ccco1,.,-0.43
Cc1nnsc1C(=O)NCc1csc(-c2cccs2)n1,-2.3,5.4
COc1ccc(C(CC#N)c2ccccc2)cc1 (stereo not given),-0.05,0.44
Cc1ccc(S(=O)(=O)N2CCC(C(=O)N3CCOCC3)CC2)cc1,.,-0.59
COc1ccc(N(CC(=O)Nc2cccc(Br)c2)S(=O)(=O)c2ccccc2)c(OC)c1,.,-0.055
CC(=O)Nc1ccc(Oc2nnc(-c3ccc(C)cc3)c3ccccc23)cc1,.,-0.035
O=C(Nc1cc(C(F)(F)F)cc(C(F)(F)F)c1)c1c(F)cccc1Cl,.,0.52
COc1cc2c(cc1OC)CN(S(=O)(=O)c1ccc3c(c1)OCCCO3)CC2,2,0.49
CCn1c(C)c(P(=O)(N2CCOCC2)N2CCOCC2)c2ccccc21,0.45,.
Cc1cccc(N/C=C/C(=O)c2cccs2)c1C,-0.9,-1.5
Cc1cc(=O)oc2c3c(ccc12)O/C(=C/c1ccc(Br)cc1)C3=O,.,0.18
FC(F)(F)c1cccc(CN2CCSCC2)c1,-0.3,0.41
COc1ccc(-c2cc(C(F)(F)F)n3nc(C(=O)NCc4cccs4)cc3n2)cc1OC,.,0.58
COc1ccc(C(=O)Nc2ccc3oc(-c4ccc(Br)cc4)nc3c2)cc1OC,.,2.2

The final 5 compounds of the section before come first, to join the parts:
Compound,AID504770,CapD inh
Cc1cccc(N/C=C/C(=O)c2cccs2)c1C,-0.9,-1.5
Cc1cc(=O)oc2c3c(ccc12)O/C(=C/c1ccc(Br)cc1)C3=O,.,0.18
FC(F)(F)c1cccc(CN2CCSCC2)c1,-0.3,0.41
COc1ccc(-c2cc(C(F)(F)F)n3nc(C(=O)NCc4cccs4)cc3n2)cc1OC,.,0.58
COc1ccc(C(=O)Nc2ccc3oc(-c4ccc(Br)cc4)nc3c2)cc1OC,.,2.2
N#Cc1cccc(NC(=O)COC(=O)c2ccc(Cl)cc2N)c1,0.35,.
O=C(OCn1nnc2ccccc2c1=O)C1CCN(C(=O)c2ccc(Cl)cc2)CC1,0.15,.
COc1ccc(C(CC(=O)c2ccco2)C2CCCCC2=O)cc1 (stereo not given),0.9,-0.05
O=C(Cc1ccc(NC2=NC3CS(=O)(=O)CC3S2)cc1)Nc1ccccc1 (stereo not given),-0.75,0.14
COC(=O)c1cccc(C(=O)Nc2ccc(C)cc2)n1,-1.4,-1.1
CC1CCC(C#N)(N(C)C(=O)COC(=O)c2ccc(CSc3ncn[nH]3)cc2)CC1 (stereo not given),-0.9,.
CCC(=O)NC(=S)Nc1ccccc1,-0.6,-0.12
O=C(COc1ccc(-c2nnco2)cc1)NCCC1=CCCCC1,-0.1,.
NC(=O)C(Cc1c[nH]c2ccccc12)NC(=O)OCCc1cccs1 (stereo not given),.,0.59
CC(=O)n1cc(/C=N/NC(=O)c2sc(C)nc2C)c2ccccc21,-0.15,.
CC(=O)SC[C@@H](C)C(=O)N1CCC[C@H]1C(=O)O,-0.05,0.06
CN(C)C1(CNCc2cnn(-c3ccccc3)n2)CCCCC1,0,.
CC(C)(C)c1ccc(C(=O)NCCN2CCCC2)cc1,-0.4,.
O=c1ccc2cc(S(=O)(=O)N3CCOCC3)ccc2o1,-0.45,-0.045
Nc1cc(C(=O)OCC(=O)N2CCCc3ccccc32)ccc1Cl,0.5,4.3
O=C(CSc1nnc(COc2ccccc2Cl)o1)NC(=O)c1ccccc1,-0.7,.

3 entries out of the list, ordered by SMILES length, rising.
Compound,AID504770,CapD inh
Cc1cccc(C(=O)c2ccccc2C(=O)O)c1O,-0.05,-0.44
Cc1nnsc1C(=O)NCc1csc(-c2cccs2)n1,-2.3,5.4
COc1ccc(-c2cc(C(F)(F)F)n3nc(C(=O)NCc4cccs4)cc3n2)cc1OC,.,0.58

Next part
Compound,AID504770,CapD inh
Cc1ccccc1NC(=O)N1CCCC(c2nc(-c3ccc(F)cc3)no2)C1 (stereo not given),1.2,.
N#CC(C(=O)Nc1ccccc1)C(=O)c1cccs1 (stereo not given),-0.35,-1.5
CCc1ccc2nc(Cl)c(CO)cc2c1,1.2,.
Cc1cc(/C=C(\C#N)C(=O)NCc2cccs2)c(C)n1C1CCCC1,2.6,.
Cn1c2c(c(=O)n(C)c1=O)CN(CCCCCCO)CN2,.,-0.92
CCOC(=O)/C(C#N)=C/C=C1\C=Cc2ccccc2N1CC,0.05,.
Cn1c(=O)c2c(ncn2CCC(=O)N2CCN(c3cccc(C(F)(F)F)c3)CC2)n(C)c1=O,-0.05,.
CC1CCN(CC(=O)c2cccc(Br)c2)CC1,1.4,.
Cc1cc(=O)oc2c3c(ccc12)O/C(=C\c1ccccc1O)C3=O,.,0.05
O=C(c1ccccc1)c1oc2ccccc2c1CSc1ccc(Cl)cc1,.,-0.42
COc1cscc1C(=O)N/N=C/c1c[nH]c2cnc(OCc3ccccc3)cc12,.,7.4
CCN1C(=O)c2cccc3c(S(=O)(=O)NCCc4ccc(OC)c(OC)c4)ccc1c23,-0.35,1.1
COc1ccc(Cn2c(SCC(=O)NCc3ccccc3)nc3c(oc4ccccc43)c2=O)cc1,-0.05,-0.17
Cc1ccc(CSc2nc(NC3CC3)c3sc4ccccc4c3n2)cc1,.,0.6
Cc1onc(-c2ccccc2)c1CNC(=O)C1COc2ccccc2O1 (stereo not given),-0.2,-0.43
CCN(CC)c1ccc(/C=N/NC(=O)CC(C)C)cc1,-0.45,.
Fc1ccc(COc2ncnc3cc(Cl)ccc23)cc1,-0.55,-0.14
CC1(C)C(=O)Nc2ccccc2N1C(=O)Cn1ccsc1=N,1.1,.
COc1ccc(C(=O)NC(=O)c2ccccc2O)cc1OC,-0.25,-1.5
O=C(NCc1ccco1)c1ccc2snnc2c1,-1.1,-0.3
O=C(O)/C=C\C(=O)Nc1ccc2nc[nH]c2c1,-0.55,0.52
COc1ccc(-c2c(C#N)c(N)nc3sc(C(=O)Nc4ccc(Br)cc4)c(N)c23)cc1,.,0.19
COCCn1cnc2c1c(=O)n(Cc1ccc(C(=O)OC)cc1)c(=O)n2Cc1ccccc1,-0.95,.
O=S(=O)(NCCSc1ccccc1)c1ccc(Cl)cc1,0.4,0.26
Cc1nc(-c2coc3c(I)c(O)ccc3c2=O)cs1,0.05,.
Cc1ccccc1C=C1C(=O)N(C)C(=S)N(C)C1=O,0.4,0.26
CC(=O)NC(Cc1ccccc1)C(=O)OCN1C(=O)c2ccccc2C1=O (stereo not given),-0.5,0.005
CC(c1ccccc1)n1c(COc2ccccc2)nc2ccccc21 (stereo not given),-0.1,0.2
O=C(Nc1nc2ccccc2[nH]1)c1ccc2c(=O)n3c(nc2c1)CCCCC3,0.35,.
CCC(=O)Nc1nc(-c2cccnc2)nc2c1c(=O)oc1ccccc12,.,-0.28
Cc1ccc(-c2nc3ccccc3c(=O)n2-n2cccc2)cc1,-0.55,0.4
Cc1ccc(C2=NN(S(=O)(=O)c3ccccc3)C(c3ccccc3F)C2)cc1 (stereo not given),.,-0.06
CC(C)NC[C@@H](O)COc1ccc(CC(N)=O)cc1,.,-0.07
CC(C)Oc1ccc(C(=O)N=c2sc3cc(Cl)ccc3n2C)cc1,-0.6,-0.65
CCC1CCCCN1C(=O)CCS(=O)(=O)c1ccccc1 (stereo not given),-1,0.21
CCc1cc2c(=O)n(Cc3ccco3)c(SCC(=O)NCC3CCCO3)nc2s1 (stereo not given),1.1,.
CSc1nc(Sc2cccc(Cl)c2)c(C#N)c(-c2ccccc2)n1,.,0.46
CCOC(=O)c1sc2ncnc(Nc3cccc(NC(C)=O)c3)c2c1C,.,21
CC(=O)NCc1c(F)cccc1Cl,-0.6,-0.55
O=C(O)CSc1ccc(Br)cc1,0.05,0.33
O=C(CSCc1ccccc1)NC1CCSC1=O (stereo not given),-0.55,-0.12
O=C(NCCO)c1ccc2[nH]c3c(c2c1)CCCC3,0.1,.
COc1ccc(/C=C/C(=O)OCc2nc3ccsc3c(=O)[nH]2)cc1S(=O)(=O)N1CCOCC1,0,.
Cc1ccccc1NC(=O)N1CC(C)Sc2ccccc21 (stereo not given),0.25,-0.8
CCOc1ccc(-c2nc(NC(C)=O)c3c(=O)oc4c(OC)cccc4c3n2)cc1,-0.1,1
CCOC(=O)C1=C(C)NC2=C(C(=O)CC(c3ccc(OC)c(OC)c3)C2)C1c1ccccc1OCC (stereo not given),.,2.4
O=C(c1ccccc1)N1c2ccccc2N=C(c2ccc(Br)cc2)CC1c1ccccc1 (stereo not given),.,-0.18
CC(C)(C)OC(=O)C(Cc1ccc(OC(C)(C)C)cc1)NC(=O)OCCc1cccc(Cl)c1 (stereo not given),.,0.15
CCOC(=O)Cc1nnc2c(Nc3ccc(OC)cc3)nc3nonc3n12,.,-0.33
O=C1Nc2ccc([N+](=O)[O-])cc2C1(O)N1CCCCCC1 (stereo not given),.,-0.29
COc1cccc(NC(=O)CN(C)CC(=O)Nc2ccc(S(=O)(=O)N(C)C)cc2)c1,0.85,.
CCOc1cc(C2C(C#N)=C(N)OC3=C2C(=O)CC(c2ccco2)C3)ccc1OC(=O)c1ccco1 (stereo not given),.,0.79

Source: PubChem BioAssay (ICCB-Longwood Screening Facility, Harvard Medical School)
